# Mtb growth = Mycobacterium tuberculosis H37Rv growth inhibition, cell based, confirmatory dose response (AID 1949); M. tuberculosis H37Rv growth inhibition; most inactive calls were filed without a number and no value below 0 was filed; inhibition, % at 10 µg/mL, or IC50 in µg/mL where a hit was titrated; 100,000 compounds, 1.6% hits;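 active = confirmed in a dose series; inconclusive = about 50% or more but not retested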;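 also: bacteria grown 7 days with compound before Alamar blue readout; 0% = untreated bacteria and 100% = reference antibiotic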
# The depositor's hits bear a star; i = inactive; ? = inconclusive. The list is partial, so the mix of outcomes need not match the whole.
SMILES,Mtb growth
O=C(COc1ccc2ccccc2c1)N1CCN(C(=O)c2cccc(F)c2)CC1,i
NC(=O)C(=O)NCc1ccc(Cl)cc1,i
CCOc1ccc(CNc2nc3ccccc3n2CCN(CC)CC)cc1,i
CN(CC(=O)Nc1cccc([N+](=O)[O-])c1)S(=O)(=O)c1ccc(Cl)cc1,i
COc1ccccc1C(O)Cc1nc2ccccc2n1C (stereo not given),i
COc1cc2c(cc1OC)C(c1ccccc1)N(C(=O)c1ccccc1)CC2 (stereo not given),i
O=C1OCCN(Cc2ccc3c(c2)OCO3)C1=O,i
COC(=O)c1ccc(C)c(NC(=O)c2ccc(N(C)S(=O)(=O)c3ccc(C)cc3)cc2)c1,i
CCc1ccc(OCC(=O)Nc2cc(C)ccc2C)c(Br)c1,i
O=C(NC1CSCC1O)c1ccccc1 (stereo not given),i
COc1ccc(-c2csc3nc(C)n(-n4cccc4)c(=O)c23)cc1OC,i
COC(=O)Cc1ccc(NC(=S)NCC(C)C)cc1,i

# In a second layout: results already given.
structure: CN(CC(=O)Nc1cccc([N+](=O)[O-])c1)S(=O)(=O)c1ccc(Cl)cc1
  Mtb growth = i

structure: COc1ccccc1C(O)Cc1nc2ccccc2n1C (stereo not given)
  Mtb growth = i

structure: COc1cc2c(cc1OC)C(c1ccccc1)N(C(=O)c1ccccc1)CC2 (stereo not given)
  Mtb growth = i

# The list continues:
SMILES,Mtb growth
CCC(=O)Nc1nc2ccccc2n1CCCN(C)C,4%
Cc1cc(C)nc(SCC(=O)Nc2cccc(C(=O)O)c2)n1,i
CCCC(C(=O)N1CCOCC1)N1C(=O)C2C3C=CC(C3)C2C1=O (stereo not given),i
Cc1ccccc1C(=O)Nc1ccc(Cl)c(CN2C(=O)c3ccccc3C2=O)c1,i
Cc1ccc(C(=O)NC(=S)Nc2sc3c(c2C(N)=O)CCCC3)cc1Br,i
CN1CCN(C(=O)c2ccccc2-c2ccccc2)CC1,i
CC1CN(c2ccc(C(F)(F)F)cc2[N+](=O)[O-])CCN1S(=O)(=O)c1ccc2ccccc2c1 (stereo not given),i
O=C(CSc1nnc(-c2ccc(Cl)cc2Cl)n1Cc1ccccc1)N1CCc2ccccc21,1%
O=C(Oc1ccc(F)cc1F)c1ccccc1F,i
CCOC(=O)N1CCN(C(=O)c2cc3ccccc3cc2O)CC1,i
COC(=O)c1c(NC(=S)NCc2cccnc2)sc(C)c1C,i
COc1ccc(S(=O)(=O)N2CCN(C(=O)c3ccco3)CC2)cc1,i
COC(=O)c1sccc1NC(=O)c1cccc(C(=O)Nc2ccsc2C(=O)OC)c1,1%
CCn1nnc(NC(=O)CC23CC4CC(CC(C4)C2)C3)n1,i
Cc1cc(C)cc(-c2nc(-c3ccc(Cl)cc3)no2)c1,i
CN(CC(=O)N1CCC(C(N)=O)CC1)S(=O)(=O)c1ccc(Br)cc1,i
COc1cccc(NC(=O)c2ccc(NC(=O)C(C)C)cc2)c1,0%
Cc1ccccc1NC(=O)c1cccc(C(=O)Nc2ccccc2C)c1,i
COc1cc(C2C3=C(CC(C)(C)CC3=O)N(C)C3=C2C(=O)CC(C)(C)C3)cc(Br)c1O,14%
O=C(OCc1nnc(-c2ccccc2)o1)c1c2c(nc3ccccc13)CCCC2,30%
COc1ccc(C(=O)N2CCN(C)CC2)cc1I,i
NS(=O)(=O)c1ccc(NC(=S)N2CCCCCC2)cc1,i
O=C(Oc1ccc2c(c1)OCO2)c1cc(S(=O)(=O)N2CCCCC2)ccc1Cl,i
Cc1ccc(S(=O)(=O)N2CCC(N3CCC(C)CC3)CC2)cc1,i
O=C(O)Cn1nnn(-c2ccccc2)c1=S,i
COCc1cc(C)nc(SCC(=O)N2CCCCC2)c1C#N,i
Cc1ccc(-c2csc(NC(=O)C3COc4ccccc4O3)n2)cc1 (stereo not given),i
Cc1cccc(C)c1OCC(=O)Nc1ccccc1C#N,i
COc1ccc(-c2cc(C(=O)N3CCCC3)c3ccccc3n2)c(OC)c1,i
COc1ccccc1-c1nnc(SCC(=O)Nc2ccc3cn[nH]c3c2)n1C,i
O=C1CC(Sc2ccccc2C(=O)O)C(=O)N1 (stereo not given),i
N/C(=N\OC(=O)c1ccccc1-c1ccccc1)c1ccccc1,i
O=C(NC(=S)Nc1ccc(F)cc1F)c1cc(I)ccc1Cl,6%
COc1ccc(/C=C(\C#N)c2nc3ccccc3n2Cc2c(C)ccc3ccccc23)cc1,3%
CC1CCN(c2nc(-c3ccc(F)cc3)cs2)CC1,i
NC(=O)c1ccc(NC(=O)Cc2cccs2)cc1,i
CCc1ccc(C2=NN(C(C)=O)C(c3ccco3)C2)cc1 (stereo not given),7%
NC(=O)C1CCN(C(=O)CN(C2CCCCC2)S(=O)(=O)c2ccc(Cl)cc2)CC1,i
C=CCn1c(Oc2cc(C)ccc2C)nc2c1c(=O)n(C)c(=O)n2C,i
N#CCCSc1nnc(-c2cccnc2)n1Cc1ccccc1,i
Cc1cccc(C)c1NC(=O)c1cccc(OC(C)C)c1,i
COc1ccc(/C(N)=N/OC(=O)c2cc(Cl)ccc2Cl)cc1OC,i
CCC(C)C(=O)Nc1cc(C(=O)O)cc(C(=O)O)c1 (stereo not given),i
CN(C)S(=O)(=O)c1ccc(C(=O)NCCOc2ccccc2)cc1,i
O=C(CSc1nc2sc3c(c2c(=O)n1Cc1ccccc1)CCCC3)N1CCCC1,i
CCC(C)Nc1ncnc2c1oc1ccccc12 (stereo not given),10%
O=c1c2c(-c3ccc(Cl)cc3)csc2ncn1CCCc1ccccc1,1%
COc1cc(Br)cc(/C=C/c2ccc3ccccc3n2)c1OC,i
Cc1ccc2c(c1)CCCN2S(=O)(=O)c1cc(OCC(N)=O)c(C)cc1Cl,0%
N#Cc1ccccc1NC(=O)c1ccc(Br)o1,2%
Cc1nn(S(=O)(=O)c2ccc(F)cc2)c(C)c1Sc1ccccc1[N+](=O)[O-],i
S=C(Nc1ccc(Cl)cc1)N1CCCCC1,i
COc1ccccc1C/C(N)=N/OC(=O)c1ccccc1F,i
CCOc1ccc(C(=O)Nc2ccccc2C(C)CC)cc1Br (stereo not given),i
Cc1ccc(-c2nnc(SCc3ccccc3F)o2)cc1,i
O=C(Cc1cccs1)Nc1ccc(S(=O)(=O)NCC2CCCO2)cc1 (stereo not given),3%
Cc1ccc(C(=O)COC(=O)C(Cc2ccccc2)N2C(=O)C3C4C=CC(C5CC45)C3C2=O)cc1 (stereo not given),i
O=C(CN(Cc1ccc(Cl)cc1)S(=O)(=O)c1ccccc1)NCC1CCCO1 (stereo not given),i
C=CCn1c(CNC(=O)c2ccc(OC)c(OC)c2)nnc1SCC(=O)Nc1ccc(C(=O)OCC)cc1,i
O=C(Nc1cccnc1)c1c(F)cccc1F,2%
# Later entries:
SMILES,Mtb growth
O=C(CSc1nc2sc3c(c2c(=O)n1-c1ccccc1)CCCCC3)NCC1CCCO1 (stereo not given),i
NC(=O)c1c(NC(=O)c2cccc(OCc3ccccc3)c2)sc2c1CCC2,i
COC(=O)Cc1c(C)c2cc(Cl)c(OCC(=O)c3cccc(OC)c3)cc2oc1=O,i
COc1ccc(C(NC(N)=O)c2ccccc2)cc1 (stereo not given),i
Cc1c(Br)ccc(NC(=O)C(Cc2ccccc2)N2C(=O)C3C4CCC(C4)C3C2=O)c1C (stereo not given),i
COc1ccc(OC)c(-c2nc(Nc3ccccc3Cl)sc2CC(=O)O)c1,i
O=C(c1cccc(Cl)c1)N1CCN(c2ccc([N+](=O)[O-])c(NCc3cccnc3)c2)CC1,0%
Oc1ccccc1-c1cc(C(F)(F)C(F)F)nn1-c1ccccc1,10%
Cc1ccccc1CN1CCC(N2CCCC2)CC1,i
O=C(Nc1cccc2ccccc12)C1CCN(C(=O)c2ccc(F)cc2)CC1,i
COc1ccc(C(=O)Nc2nc3c(C)cc(C)cc3s2)cc1OC,2%
Cc1cc(Cl)c(OCCCN2CCN(C)CC2)c(Br)c1,i
O=C1c2ccccc2C(O)(Cc2ccccc2)N1C1CCCCC1 (stereo not given),3%
CC1CCN(C(=O)COc2ccc3ccccc3c2Br)CC1,15%
O=C(COc1ccc(Br)cc1)NC(=S)Nc1ccc(F)cc1F,i
COC(=O)c1ccc(NC(=O)c2ccoc2C)cc1,1%
O=C(CSc1nnc(-c2ccccc2)c(-c2ccccc2)n1)Nc1ccccc1,i
Cc1cc(C)cc(OC(C)C(=O)Nc2ccc(S(=O)(=O)Nc3cc(C)nc(C)n3)cc2)c1 (stereo not given),i
Cc1cc(C)cc(C(=O)Nc2ccc3nn(-c4ccc(F)cc4)nc3c2)c1,i
O=C(C1=C(O)C(=O)N(CCN2CCOCC2)C1c1ccc(Cl)cc1)c1ccco1 (stereo not given),i
O=C(Nc1ccccc1N1CCOCC1)c1cccnc1,i
CC1CN(C(=O)c2ccc(N(C)C)cc2)CC(C)O1 (stereo not given),i
CCOC(=O)c1c(NC(=O)CC23CC4CC(CC(C4)C2)C3)sc(C(=O)OC)c1C,i
CC(=O)c1ccc(NC(=O)CSc2nnc(CN3CCOCC3)n2-c2ccc(Cl)cc2)cc1,i

# A second format for twelve compounds above.
Molecule | Mtb growth
O=C(Nc1ccccc1N1CCOCC1)c1cccnc1 | i
CC1CN(C(=O)c2ccc(N(C)C)cc2)CC(C)O1 (stereo not given) | i
O=C(C1=C(O)C(=O)N(CCN2CCOCC2)C1c1ccc(Cl)cc1)c1ccco1 (stereo not given) | i
Cc1cc(C)cc(C(=O)Nc2ccc3nn(-c4ccc(F)cc4)nc3c2)c1 | i
Cc1cc(C)cc(OC(C)C(=O)Nc2ccc(S(=O)(=O)Nc3cc(C)nc(C)n3)cc2)c1 (stereo not given) | i
O=C(COc1ccc(Br)cc1)NC(=S)Nc1ccc(F)cc1F | i
CCOC(=O)c1c(NC(=O)CC23CC4CC(CC(C4)C2)C3)sc(C(=O)OC)c1C | i
O=C(CSc1nnc(-c2ccccc2)c(-c2ccccc2)n1)Nc1ccccc1 | i
CC(=O)c1ccc(NC(=O)CSc2nnc(CN3CCOCC3)n2-c2ccc(Cl)cc2)cc1 | i
COC(=O)c1ccc(NC(=O)c2ccoc2C)cc1 | 1%
O=C1c2ccccc2C(O)(Cc2ccccc2)N1C1CCCCC1 (stereo not given) | 3%
CC1CCN(C(=O)COc2ccc3ccccc3c2Br)CC1 | 15%

# Additional structures follow.
SMILES,Mtb growth
CCN1CCN(C(=S)c2ccc(OCc3ccccc3)c(OC)c2)CC1,i
COc1ccc(OC)c(C2NC(=O)NC(C)=C2C(=O)Nc2ccc(C)c(C)c2)c1 (stereo not given),i
CC(=O)c1ccc(/C=C/c2nc3ccccc3n2C)o1,i
COc1ccc(CSc2nnc(SCC(=O)C(C)(C)C)s2)cc1,4%
COc1ccc(-c2nnc(SCC(=O)Nc3ccc(Cl)cc3C)o2)cc1,3%
CCOC(=O)c1sc(NC(=O)CSc2nnc(-c3ccncc3)o2)c(C(=O)OCC)c1C,i
CN(C(=O)c1ccc(Cl)cc1)c1ccc(C(O)(C(F)(F)F)C(F)(F)F)cc1,7%
CC1CCN(CCCCOc2ccc(Br)cc2Cl)CC1,0%
Clc1ccc(CSc2nnc(SCc3cccc(Cl)c3)s2)cc1,11%
CC1=C(C(=O)OC2CCCCCC2)C(c2coc3ccccc3c2=O)C2=C(CCCC2=O)N1 (stereo not given),12%
S=C(NCc1ccco1)N1CCN(C(c2ccccc2)c2ccccc2)CC1,i
N#Cc1ccccc1NC(=O)CCCOc1ccccc1,i
CCOc1ccc(C2C(C#N)=C(N)Oc3n[nH]c(C)c32)cc1Br (stereo not given),i
Nc1cc(=O)[nH]c2nnc(SCc3cccc(Oc4ccccc4)c3)n12,8%
COc1ccccc1Oc1ccc(S(=O)(=O)Nc2cccnc2)cc1,i
O=C(CSc1nc2ccccc2o1)c1ccc2c(c1)OCCO2,0%
Cc1nnc(SCC(=O)Nc2cccc3ccccc23)s1,i
Cc1ccc(NC(=O)CSc2nnnn2-c2ccc(F)cc2)cc1C,i
CCOc1ccc(C(=O)Nc2nnc(CC(C)C)s2)cc1,0%
COc1ccc(C(C)=O)cc1COc1ccc(F)cc1,3%
CCN(CC)CC(=O)Nc1ccccc1OC,i
O=C(CN1C(=O)c2cccc3cccc1c23)Nc1ccccc1C(=O)N1CCOCC1,i
Cc1ccc(S(=O)(=O)c2cc(C)ccc2C)cc1,i
Cc1cc(OCC(=O)NC2CC(C)(C)NC(C)(C)C2)cc(C)c1Cl,i
Cc1cc(C)c2c(c1)c1n[nH]c(=S)nc1n2C,i
Cc1cccc(C(=O)NC(=S)Nc2ccc(I)cc2)c1,1%
O=c1cc(/C=C/c2ccccc2)oc2ccccc12,43%
COc1ccc(Nc2nc(N)c3ccccc3n2)cc1,2%
Cc1cc2occ(CC(=O)NCCCN3CCOCC3)c2c(C)c1Cl,i
COc1ccccc1CNC(=O)c1csc(C)c1,0%
O=C(NC1CCCCC1)c1ccc(NC(=O)c2ccc(Cl)cc2Cl)cc1,i
CCOC(=O)Nc1sccc1C(N)=O,i
CSc1cccc(NC(=O)C(C)N(c2ccc(Oc3ccccc3)cc2)S(C)(=O)=O)c1 (stereo not given),i
O=c1[nH]c(/C=C/c2ccc(C(F)(F)F)cc2)c([N+](=O)[O-])c(=O)[nH]1,i
COc1ccc(-c2ccc(C#N)c(SCc3ccccc3)n2)cc1,i
O=C(CCCN1C(=O)c2ccccc2C1=O)Nc1ccc(S(=O)(=O)Nc2ncccn2)cc1,i
CC(C)C(=O)Nc1cccc(C(=O)Nc2nnc(Cc3ccc(Cl)cc3)s2)c1,1%
CCCNC(=O)c1ccccc1NC(=O)CN(c1ccc(F)cc1)S(=O)(=O)c1ccccc1,i
O=C(Cc1cccs1)Nc1ccc(-c2nc3ccccc3c(=O)[nH]2)cc1,2%
COc1cc(C(C)=O)ccc1OCC(O)CN1CCN(c2ccc(C)cc2C)CC1 (stereo not given),?
Cc1cccnc1NC1=NCC(C)S1 (stereo not given),i
CCCCOc1ccc(NC(=O)C(=O)NCc2ccc(Cl)cc2)cc1,i
CSc1nnc(-c2cccc([N+](=O)[O-])c2)n1Cc1ccccc1,i
COC(=O)c1ccc(C2Nc3c(C(=O)O)cccc3C3C4CCC(C4)C23)cc1 (stereo not given),i
COc1ccc(NC(=O)CSC2=C(C#N)C(c3ccccc3C)CC(=O)N2)cc1 (stereo not given),i

# Screening data as filed in PubChem.
